Screens deposited in PubChem BioAssay by Broad Institute.
UUG fidelity = alters start codon recognition fidelity in yeast; S. cerevisiae UUG-firefly luciferase reporter, luminescence/redox ratio; activity score, % at 18.7 µM; 350,000 tested, 0.13% active; AID 602363;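 active = replicate mean at a twofold rise or more, about +100% in these data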;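 note: firefly luciferase made from a UUG start codon reports start codon fidelity; reporter light over untreated wells divided by growth signal over untreated wells; some hits fall short of that in this replicate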
Env fusion inh = inhibitors of HIV Env-mediated cell fusion; HeLa-JRFL Env/CEM21 cell fusion, luciferase; inhibition, % at 12.3 µM; 360,000 tested, 1.1% active; AID 651610;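 active = mean replicate inhibition score of at least 50 and every replicate individually at or above 50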;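 note: 0% = plate neutral controls and 100% = maraviroc near 300 nM; one replicate is shown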
* = called active by the depositor; [ ] = another dose, or the depositor's remark.

SMILES	UUG fidelity	Env fusion inh
Cc1ccc(S(=O)(=O)Nc2ccc3c(c2)C(=O)N([C@H](C)CO)C[C@@H](C)[C@H](CN(C)S(=O)(=O)c2c(C)noc2C)OCCCC[C@@H](C)O3)cc1	-9	-10[16.7 µM]
CC(C)C#Cc1cnc2c(c1)C(=O)N([C@H](C)CO)C[C@H](C)[C@@H](CN(C)C(=O)Nc1cc(F)ccc1F)O2	15	10[16.7 µM]
C[C@@H]1CN([C@H](C)CO)C(=O)c2cccc(NS(=O)(=O)c3ccc(F)cc3)c2O[C@@H]1CN(C)S(=O)(=O)c1cn(C)cn1	-8	-7[16.7 µM]
CO[C@@H]1CN(C)C(=O)c2ccc(NS(C)(=O)=O)cc2OC[C@H](C)N(CC2CCOCC2)C[C@@H]1C	3	12[16.7 µM]
COC(=O)C[C@@H]1C=C[C@@H](NC(=O)c2ccccc2)[C@H](CO)O1	-2	-9[16.7 µM]
CO[C@@H]1CN(C)C(=O)c2cc(NC(=O)c3ccccc3)ccc2OC[C@@H](C)NC[C@@H]1C	14	-1[16.7 µM]
Cc1ccc(S(=O)(=O)N(C)C[C@H]2Oc3c(NC(=O)Nc4ccccc4)cccc3C(=O)N([C@@H](C)CO)C[C@@H]2C)cc1	13	-5[16.7 µM]
C[C@H]1CN([C@@H](C)CO)C(=O)Cc2cc(NS(C)(=O)=O)ccc2O[C@H]1CN(C)Cc1ccncc1	-20	-9[16.7 µM]
Cc1noc(C)c1S(=O)(=O)Nc1ccc2c(c1)C(=O)N([C@@H](C)CO)C[C@H](C)[C@@H](CN(C)Cc1ccc3c(c1)OCO3)OCCCC[C@@H](C)O2	33	-38[16.7 µM]
C[C@@H]1CN([C@H](C)CO)S(=O)(=O)c2ccc(-c3cccnc3)cc2O[C@@H]1CN(C)C(=O)NC1CCCCC1	4	-1[16.7 µM]
CCC(=O)N(C)C[C@H]1Oc2cc(C#CCN(C)C)ccc2S(=O)(=O)N([C@H](C)CO)C[C@@H]1C	-3	-23[16.7 µM]
CNC[C@@H]1Oc2ccc(NC(=O)Nc3ccc(C(F)(F)F)cc3)cc2CC(=O)N([C@H](C)CO)C[C@@H]1C	19	-9[16.7 µM]

Reprinted from the part before: 7 compounds, then new ones.
SMILES	UUG fidelity	Env fusion inh
CO[C@@H]1CN(C)C(=O)c2cc(NC(=O)c3ccccc3)ccc2OC[C@@H](C)NC[C@@H]1C	14	-1[16.7 µM]
Cc1ccc(S(=O)(=O)N(C)C[C@H]2Oc3c(NC(=O)Nc4ccccc4)cccc3C(=O)N([C@@H](C)CO)C[C@@H]2C)cc1	13	-5[16.7 µM]
C[C@H]1CN([C@@H](C)CO)C(=O)Cc2cc(NS(C)(=O)=O)ccc2O[C@H]1CN(C)Cc1ccncc1	-20	-9[16.7 µM]
Cc1noc(C)c1S(=O)(=O)Nc1ccc2c(c1)C(=O)N([C@@H](C)CO)C[C@H](C)[C@@H](CN(C)Cc1ccc3c(c1)OCO3)OCCCC[C@@H](C)O2	33	-38[16.7 µM]
C[C@@H]1CN([C@H](C)CO)S(=O)(=O)c2ccc(-c3cccnc3)cc2O[C@@H]1CN(C)C(=O)NC1CCCCC1	4	-1[16.7 µM]
CCC(=O)N(C)C[C@H]1Oc2cc(C#CCN(C)C)ccc2S(=O)(=O)N([C@H](C)CO)C[C@@H]1C	-3	-23[16.7 µM]
CNC[C@@H]1Oc2ccc(NC(=O)Nc3ccc(C(F)(F)F)cc3)cc2CC(=O)N([C@H](C)CO)C[C@@H]1C	19	-9[16.7 µM]
CCCC(=O)N(CCc1c[nH]c2ccccc12)[C@@H]1CC(C(=O)NCCO)=C[C@H](Oc2c(I)cc(CO)cc2OC)[C@H]1O	7	19[16.7 µM]
Cc1noc(C)c1NC(=O)N[C@@H]1C=C[C@@H](CC(=O)Nc2ccccc2)O[C@H]1CO	-12	-18[16.7 µM]
COCC(=O)N(C)C[C@H]1Oc2ncc(C#Cc3ccccc3OC)cc2C(=O)N([C@@H](C)CO)C[C@@H]1C	8	-2[16.7 µM]
CN1C(=O)c2cc(NC(=O)c3ccc(C(F)(F)F)cc3)ccc2OC[C@@H]2O[C@H](CC(=O)O)CC[C@@H]21	1	2[16.7 µM]
C[C@H](CO)N1C[C@H](C)[C@@H](CN(C)S(C)(=O)=O)Oc2cc(C#CC3CC3)ccc2S1(=O)=O	13	9[16.7 µM]
C[C@H]1CN([C@@H](C)CO)C(=O)c2cccc(NS(=O)(=O)c3ccc(F)cc3)c2O[C@@H]1CN(C)Cc1ccc(C(F)(F)F)cc1	-2	-5[16.7 µM]
Cc1ccc(S(=O)(=O)N(C)C[C@@H]2OCCCC[C@H](C)Oc3ccc(NS(=O)(=O)c4cn(C)cn4)cc3C(=O)N([C@H](C)CO)C[C@H]2C)cc1	-11	-21[16.7 µM]
C[C@@H]1CN([C@H](C)CO)S(=O)(=O)c2ccc(/C=C/c3ccccc3)cc2O[C@H]1CN(C)C(=O)c1ccncc1	0	-4[16.7 µM]
C[C@@H]1CN([C@H](C)CO)S(=O)(=O)c2ccc(-c3cccnc3)cc2O[C@@H]1CN(C)Cc1cncnc1	-15	-9[16.7 µM]
CC(=O)Nc1ccc2c(c1)C(=O)N(C)[C@@H]1CC[C@H](CC(=O)NCc3ccccc3Cl)O[C@H]1CO2	6	-10[16.7 µM]
C[C@@H]1CN([C@H](C)CO)S(=O)(=O)c2ccc(-c3ccc(C(=O)N(C)C)cc3)cc2O[C@@H]1CN(C)Cc1ccccc1C(=O)O	3	-6[16.7 µM]
Cc1ccc(S(=O)(=O)Nc2ccc3c(c2)C(=O)N([C@@H](C)CO)C[C@@H](C)[C@H](CN(C)C(=O)NC(C)C)OCCCC[C@H](C)O3)cc1	33	-179[16.7 µM]
Cc1ccc(S(=O)(=O)N[C@@H]2CC[C@@H](CCNC(=O)Nc3ccc(Cl)cc3)O[C@H]2CO)cc1	6	-9[16.7 µM]
C[C@H]1CCCCO[C@H](CN(C)C(=O)CCCN(C)C)[C@@H](C)CN([C@@H](C)CO)C(=O)c2cc(NC(=O)CCC(F)(F)F)ccc2O1	21	7[16.7 µM]
Cc1cc(C(=O)Nc2cccc3c2O[C@@H](CN(C)S(=O)(=O)c2ccccc2)[C@@H](C)CN([C@H](C)CO)C3=O)n(C)n1	24	-7[16.7 µM]
CC(C)C(=O)Nc1ccc2c(c1)C(=O)N(C)[C@H]1CC[C@@H](CC(=O)N[C@@H](C)c3ccccc3)O[C@H]1CO2	15	-49[16.7 µM]
O=S(=O)(N[C@@H]1CC[C@@H](CCn2cc(C3CC3)nn2)O[C@H]1CO)c1ccc(Cl)cc1	11	1[16.7 µM]
C[C@H]1CN([C@@H](C)CO)C(=O)Cc2cc(NS(=O)(=O)c3ccc(Cl)cc3)ccc2O[C@H]1CN(C)S(=O)(=O)c1ccc(Cl)cc1	-3	-20[16.7 µM]
C[C@@H]1CN([C@H](C)CO)C(=O)c2cc(N(C)C)ccc2O[C@@H](C)CCCCO[C@@H]1CN(C)Cc1ccc(C(=O)O)cc1	7	-7[16.7 µM]
COc1ccccc1NC(=O)N[C@@H]1CC[C@H](CCn2cc(-c3cccnc3)nn2)O[C@H]1CO	-12	8[16.7 µM]
CCCC(=O)Nc1ccc2c(c1)OC[C@@H](C)N(C(=O)c1ccncc1)C[C@@H](C)[C@@H](OC)CN(C)C2=O	11	-17[16.7 µM]
CC(C)NC(=O)Nc1ccc2c(c1)C(=O)N([C@@H](C)CO)C[C@@H](C)[C@@H](CN(C)Cc1ccc3c(c1)OCO3)OCCCC[C@@H](C)O2	14	19[16.7 µM]
C[C@@H]1CCCCO[C@H](CN(C)CC2CCCCC2)[C@H](C)CN([C@H](C)CO)C(=O)c2cc(NS(=O)(=O)c3ccc(F)cc3)ccc2O1	16	-3[16.7 µM]
COCC(=O)Nc1ccc2c(c1)[C@H]1C[C@H](CC(=O)NCCN3CCCCC3)O[C@H](CO)[C@H]1O2	-5	-7[16.7 µM]
C[C@H](CO)N1C[C@H](C)[C@H](CN(C)Cc2ccc(Cl)c(Cl)c2)Oc2c(NC(=O)c3ccc(-c4nccs4)cc3)cccc2C1=O	5	19[16.7 µM]
COc1ccc(S(=O)(=O)Nc2ccc3c(c2)C(=O)N([C@@H](C)CO)C[C@@H](C)[C@H](CN(C)Cc2ccncc2)OCCCC[C@H](C)O3)cc1	4	-14[16.7 µM]
C[C@@H]1CN([C@H](C)CO)C(=O)Cc2cc(NC(=O)C3CCCCC3)ccc2O[C@H]1CN(C)CC1CC1	5	2[16.7 µM]
CC(C)NC(=O)N(C)C[C@@H]1Oc2c(NS(=O)(=O)c3cn(C)cn3)cccc2C(=O)N([C@@H](C)CO)C[C@@H]1C	-6	21[16.7 µM]
Cc1ccc(S(=O)(=O)N(C)C[C@H]2OCCCC[C@@H](C)Oc3ccc(NC(=O)CCCN(C)C)cc3C(=O)N([C@H](C)CO)C[C@@H]2C)cc1	7	-1[16.7 µM]
C[C@H]1CN([C@@H](C)CO)C(=O)Cc2cc(NS(=O)(=O)c3ccccc3)ccc2O[C@@H]1CN(C)Cc1ccc(C(=O)Nc2ccccc2N)cc1	-6	-4[16.7 µM]
C[C@@H]1CCCCO[C@H](CN(C)S(C)(=O)=O)[C@@H](C)CN([C@@H](C)CO)C(=O)c2cc(NC(=O)NC3CCCCC3)ccc2O1	12	-13[16.7 µM]
CN1C(=O)c2cc(NC(=O)C3CCCCC3)ccc2OC[C@@H]2O[C@H](CC(=O)NC3CCCC3)CC[C@@H]21	11	0[16.7 µM]
C/C=C/c1ccc2c(c1)O[C@H](CN(C)C(=O)Nc1ccccc1)[C@H](C)CN([C@@H](C)CO)S2(=O)=O	-11	-3[16.7 µM]
CNC[C@@H]1Oc2cc(-c3cccnc3)ccc2S(=O)(=O)N([C@H](C)CO)C[C@H]1C	5	-6[16.7 µM]
C[C@@H]1CCCCO[C@@H](CN(C)S(=O)(=O)c2ccc(F)cc2)[C@H](C)CN([C@@H](C)CO)C(=O)c2cc(NC(=O)Nc3ccc4c(c3)OCO4)ccc2O1	3	-19[16.7 µM]
C[C@@H]1CCCCO[C@@H](CN(C)S(=O)(=O)c2cn(C)cn2)[C@@H](C)CN([C@H](C)CO)C(=O)c2cc(NC(=O)CCCN(C)C)ccc2O1	-19	-2[16.7 µM]
COc1ccc(S(=O)(=O)Nc2ccc3c(c2)C(=O)N([C@H](C)CO)C[C@@H](C)[C@H](CN(C)C(=O)Nc2c(C)noc2C)OCCCC[C@@H](C)O3)cc1	7	13[16.7 µM]
O=C(C[C@@H]1CC[C@H](NC(=O)c2ccncc2)[C@H](CO)O1)NCC1CC1	3	-14[16.7 µM]
O=C(C[C@H]1CC[C@@H](NC(=O)c2ccncc2)[C@H](CO)O1)NCCc1ccncc1	-2	-7[16.7 µM]
C[C@@H]1CN([C@H](C)CO)C(=O)c2cc(C3=CCCC3)cnc2O[C@@H]1CN(C)Cc1ccc(F)cc1	21	-9[16.7 µM]
O=C(C[C@@H]1C=C[C@H](NC(=O)Nc2cc(F)ccc2F)[C@@H](CO)O1)NCc1ccncn1	-8	-3[16.7 µM]
C[C@@H]1CCCCO[C@H](CN(C)S(C)(=O)=O)[C@@H](C)CN([C@@H](C)CO)C(=O)c2cc(NS(C)(=O)=O)ccc2O1	-3	4[16.7 µM]
C[C@H](CO)N1C[C@H](C)[C@H](CN(C)S(=O)(=O)c2ccc(F)cc2)Oc2ncc(C#CC3(O)CCCC3)cc2C1=O	14	-24[16.7 µM]
C[C@@H]1CCCCO[C@@H](CN(C)S(=O)(=O)c2ccc(Cl)cc2)[C@H](C)CN([C@H](C)CO)C(=O)c2cc(NS(=O)(=O)c3ccccc3)ccc2O1	17	24[16.7 µM]
CCNC(=O)C[C@H]1C=C[C@@H](NC(=O)C2CCOCC2)[C@H](CO)O1	0	5[16.7 µM]
C[C@@H]1CCCCO[C@@H](CN(C)C(=O)C2CCCCC2)[C@@H](C)CN([C@H](C)CO)C(=O)c2cc(NC(=O)Nc3ccc(C(F)(F)F)cc3)ccc2O1	-15	15[16.7 µM]
O=C(N[C@H]1CC[C@@H](CCn2cc(-c3ccccn3)nn2)O[C@@H]1CO)c1ccncc1	-14	-2[16.7 µM]
O=C(C[C@@H]1CC[C@@H](NC(=O)c2ccccc2)[C@@H](CO)O1)NCc1ccc(Oc2ccccc2)cc1	-7	27[16.7 µM]
CCCNC(=O)N[C@H]1C=C[C@@H](CC(=O)NC2CCC2)O[C@@H]1CO	-1	9[16.7 µM]
C[C@@H]1CCCCO[C@H](CN(C)C(=O)Nc2ccc(C(F)(F)F)cc2)[C@@H](C)CN([C@H](C)CO)C(=O)c2cc(NS(C)(=O)=O)ccc2O1	-9	-43[16.7 µM]
C[C@@H]1CN([C@@H](C)CO)C(=O)c2cccc(NS(=O)(=O)c3ccc(F)cc3)c2O[C@H]1CN(C)Cc1ccccc1	11	2[16.7 µM]
COc1ccc(NC(=O)N[C@H]2C=C[C@H](CC(=O)NC3CCCCC3)O[C@H]2CO)cc1	2	3[16.7 µM]
CCCc1cn(CC[C@H]2CC[C@H](NC(=O)C3CCC3)[C@@H](CO)O2)nn1	3	18[16.7 µM]
CC(C)NC(=O)Nc1ccc2c(c1)C(=O)N([C@H](C)CO)C[C@H](C)[C@@H](CN(C)C(=O)Nc1ccc(F)cc1)OCCCC[C@H](C)O2	-3	-21[16.7 µM]
CC(C)NC(=O)N(C)C[C@@H]1Oc2ncc(C#Cc3cccc(F)c3)cc2C(=O)N([C@H](C)CO)C[C@@H]1C	-2	2[16.7 µM]
Cc1noc(C)c1S(=O)(=O)Nc1ccc2c(c1)C(=O)N([C@@H](C)CO)C[C@H](C)[C@H](CN(C)Cc1ccc3c(c1)OCO3)OCCCC[C@@H](C)O2	2	4[16.7 µM]
C[C@@H]1CCCCO[C@H](CN(C)C(=O)CCC(F)(F)F)[C@H](C)CN([C@@H](C)CO)C(=O)c2cc(NC(=O)NC3CCCCC3)ccc2O1	8	-9[16.7 µM]

The list is partial, so the mix of outcomes need not match the whole.
